Sfp inh – Sfp phosphopantetheinyl transferase inhibition; Q9F4F7; Biochemical Sfp PPTase activity, qHTS; Potency, µM, for the others: max response, negative = inhibition, most hits filed as inhibitors; 310,000 compounds, 3.5% hits; AID 1490; active = well fitted inhibition curve with a large enough effect; inconclusive = small, poorly fitted or top-dose-only effect, or another doubt; inactive = no such curve, though single readings can be large or run the other way;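 also: the enzyme is Sfp with the accession as filed and its product quenches rhodamine fluorescence; potency is read from the fitted curve at half-maximal effect; 0% = enzyme reaction without inhibitor and -100% = no enzyme wells; top concentration of the series not given in the record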
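Sfp 15 nM + cpd, 15 min RT; start w/ rhodamine-CoA 5 uM, BHQ-2-YbbR 12.5 uM (final); 50 mM Hepes pH 7.6, 10 mM MgCl2, 0.01% NP-40, 0.01% BSA; read 525/598 nm at 0 and 30 min.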
PINK1 expr mod – changes PINK1 expression; PINK1 immunofluorescence, high-content cytometry, 24 h; Potency, µM (top dose mostly 76.6 µM), for inactives: top-dose activation (PINK1 increase), hits mostly activators; 410,000 compounds, 0.2% hits; AID 624263; active = well fitted activation curve with a large enough effect; inconclusive = small, poorly fitted or top-dose-only effect; inactive = flat fitted curve, though single readings scatter; cell line not stated here;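 also: potency is read from the fitted curve at half-maximal effect; % of control where 0% means no effect; nearly all actives have a fitted effect of over 65% in size; a mitochondrial uncoupler was the plate control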
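Stable cell line treated 24 h with compounds at 5 concentrations (CCCP controls), then fixed and immunostained for PINK1 plus nuclear and cell stains; PINK1 immunofluorescence quantified by laser-scanning microplate cytometry.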
CtBP-E1A blk – blocks the CtBP interaction with E1A; AID 651724; activity change, % (concentration not given with the values); 340,000 compounds, 0.49% hits; AlphaScreen GST-E1A/His-CtBP binding, 1536-well; active compounds read low; control for the full effect not named in the record; in the data active means activity change below about -65%; inconclusive means about -30% to -65%; inactive means above about -30%; also: % is scaled to controls: 0 for no effect and ±100 for the full control effect
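Homogeneous bead-based format: GST-tagged E1A captured on glutathione donor beads, His-tagged CtBP on nickel acceptor beads; compounds precede bead addition by 2 h at 37 °C.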
TRPV1 PAM – potentiators of human vanilloid receptor 1 (TRPV1) | potentiation, % at 8.33 µM | 320,000 compounds, 0.02% hits | TRPV1-expressing cells, Fluo-8 calcium influx, capsaicin EC20 potentiation; host cell line not named in the record; control for the full effect not named in the record | Q8NER1; active means potentiation above 80%; inconclusive means 30% to 80%; inactive means below 30%; also: 0% is about no effect
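Fluo-8 calcium influx in TRPV1-expressing cells, kinetic read (ex 480/em 520 nm). Compound added and read 3 min for agonist activity, followed by capsaicin at EC20 final and 2 min further read for enhancement.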
Six1-Eya2 blk – inhibitors of human Six1/Eya2 interaction; AlphaScreen GST-Six1/His-Eya2 binding, biochemical; active compounds read low; control for the full effect not named in the record; AID 651725; Q15475+O00167; 360,000 compounds, 0.56% hits; activity change, % (no concentration beside the values); in the data active = activity change below about -65%; inconclusive = about -30% to -65%; inactive = above about -30%; also: % is scaled to controls: 0 for no effect and ±100 for the full control effect
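GST-Six1 + His-Eya2 (5X stock: 250/500 nM); Tris pH 8.0, 300 mM NaCl, 0.05% BSA, 0.02% Tween 20; GSH donor/Ni acceptor beads; 1 h 37 °C dark; AlphaScreen readout.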
D2 potentiator – positive allosteric modulators of human D2 dopamine receptor; potentiation, % (no concentration beside the values); P14416; DiscoveRx D2 beta-arrestin cells, luminescence, 90 min; 100% = 57 uM dopamine signal; 360,000 compounds, 0.23% hits; AID 624464; active = potentiation of 50% or more; inconclusive = 30% to 50%; inactive = 30% or less;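 also: compound concentration not given in the record; tested on top of an EC20 dose of dopamine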
Target sequence (P14416 whole entry, looked up): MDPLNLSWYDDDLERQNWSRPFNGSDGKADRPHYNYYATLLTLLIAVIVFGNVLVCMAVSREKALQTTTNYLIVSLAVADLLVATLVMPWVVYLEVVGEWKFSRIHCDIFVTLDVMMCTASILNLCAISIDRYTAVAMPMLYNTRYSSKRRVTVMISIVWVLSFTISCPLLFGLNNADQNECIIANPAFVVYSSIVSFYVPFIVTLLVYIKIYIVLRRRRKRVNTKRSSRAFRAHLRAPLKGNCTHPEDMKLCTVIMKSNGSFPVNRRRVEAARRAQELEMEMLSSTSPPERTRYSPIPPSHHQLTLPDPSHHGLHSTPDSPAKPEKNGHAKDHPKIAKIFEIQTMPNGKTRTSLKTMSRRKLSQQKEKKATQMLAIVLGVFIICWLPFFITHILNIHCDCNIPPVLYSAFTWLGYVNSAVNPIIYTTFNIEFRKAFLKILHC
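PathHunter D2 cells, attached overnight at 37 deg C, received compound in DMSO plus dopamine at EC20 (50 nM final) for 90 min at 37 deg C. Beta-arrestin recruitment was read as luminescence after 1 h with detection reagent at ambient temperature.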
D2 agonist – activates the human D2 dopamine receptor; P14416; DiscoveRx PathHunter D2 beta-arrestin, luminescence, 90 min; 100% = 57 uM dopamine signal; activation, % (no concentration beside the values); 360,000 compounds, 0.084% hits; AID 624465; in the data active = activation above about 40%; inconclusive = about 15% to 40%; inactive = below about 15%; also: compound concentration not given in the record; the text of the record calls up to 30% inactive
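Agonist mode: compounds alone added to overnight-plated D2 PathHunter cells for 90 min at 37 C, with 57 uM final dopamine (EC100) defining full response. Beta-arrestin recruitment detected by chemiluminescent reagent, read after 1 h at ambient temperature.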
The depositor's hits bear a star; ? = inconclusive; · = not tested or not shown; & = joins results of further samples; [ ] = dose if it differs, or a comment.

SMILES | Sfp inh | PINK1 expr mod | CtBP-E1A blk | TRPV1 PAM | Six1-Eya2 blk | D2 potentiator | D2 agonist
O=C(Nc1ncc(Cc2ccc(C(F)(F)F)cc2)s1)c1ccc(-c2cccc([N+](=O)[O-])c2)o1 | 18% | 4.8% | -4 | -3 | 2 | -10 | -0.7
COc1ccc(C2(C)NC(=O)N(CC(=O)Nc3cccnc3Cl)C2=O)cc1 (stereo unspecified) | 14% | 0.7% | 5 | -3 | 5 | -10 | -7.6
CC(Sc1nc2nn(-c3ccccc3)c(=O)c-2c2n1CCCCC2)C(N)=O (stereo unspecified) | 16% | 0.8% | -2 | -3 | 0 | 0 | -2.5
CCOC(=O)c1c(C)[nH]c(C(=O)N/N=C/c2cc([N+](=O)[O-])ccc2O)c1C | -3% | 4.5% | ? | ? | ? | -7 | -3.8
O=C(Nc1ccccc1O)c1ccc2c(c1)C(=O)N(c1ccccc1)C2=O | -5% | 1.4% | -2 | 1 | 6 | -6 | 0.8
C/C(=N\O)c1ccc2c3ccccc3n(C)c2c1 | 5% | -0.4% | -10 | 4 | -10 | -10 | -4.1
CCn1c(SCC(=O)Nc2ccccc2N2CCOCC2)nnc1-c1ccccc1O | 21% | 1.9% | -1 | 14 | -4 | 8 | -0.6
COC(=O)CCC(=O)Nc1ccccc1C(=O)Nc1ccccc1 | -4% | 1.5% | 1 | 3 | -3 | -6 | 0.5
Cc1cc2nnc(SCC(=O)NCc3cccs3)n2c(N)n1 | 8% | -1.4%[38.3 µM] | 4 | 16 | 2 | -13 | 0.2
CCOC(=O)c1c(NC(=O)COc2ncnc3sccc23)sc2c1CCC2 | 3% | 12%[38.3 µM] | -5 | -26 | -2 | -7 | -3.9
O=C(CNC1CCCCC1)Nc1cccc([N+](=O)[O-])c1 | · | 0.9% | 8 | · | -3 | -6 | -4.4
CC(C)C(C)N(Cc1cccc(C(=O)O)c1)C(=O)c1ccc2ccccc2n1 (stereo unspecified) | · | -0.1% | 7 | · | 1 | -3 | -0.5
CCOc1cccc(CNc2ccc(O)cc2)c1OCc1ccc(Cl)cc1 | 45µM* | ? | ? | -9 | 1 | 91* | ?
CCOC(=O)C1C(=O)N(O)CC1c1cccc(Oc2ccccc2)c1 (stereo unspecified) | 17% | -0.2% | · | 7 | 5 | -8 | -0.8
Cc1noc(/C=C/c2ccco2)c1S(=O)(=O)N1CCC(C(=O)NC(C)c2ccccc2)CC1 (stereo unspecified) | -13% | 0.3% | -2 | · | 2 | -1 | -7.4
O=C(Cc1ccc(NC(=O)C2CCN(C(=O)CCc3ccccc3)CC2)cc1)Nc1ccc(C(=O)N2CCOCC2)cc1 | · | 0.5% | 0 | · | -1 | -4 | -1.1
COc1ccc(C)cc1NC(=O)c1ccc2c(SCC(=O)O)c3c(nc2c1)CCCC3 | 9% | 0.9%&1.2% | -20 | 4 | 0 | -4 | -5.4
CCc1cc2c(=O)n3c(nc2s1)-c1[nH]c2ccc(OC)cc2c1CC3 | 10% | 3.9% | -6 | -1 | 9 | -9 | 1.1
Cc1cccnc1NC(=O)c1cccc(S(=O)(=O)N2CCN(c3ccc(F)cc3)CC2)c1 | 7% | 2.6% | 2 | 4 | -1 | -33 | 4.5
CCc1nnc(NC(=O)CCC(=O)NC2CC2)s1 | 10% | 2.1% | · | 11 | -1 | -2 | -0.3
Cc1ccc(OCC(=O)NNC(=O)C2CCN(c3ncccn3)CC2)cc1 | -4% | -4.8%[38.3 µM] | 10 | 6 | 4 | -2 | 0.6
CCOc1cc(CN2CCN(C(=O)c3ccco3)CC2)ccc1OC | -31% | 0.0% | 8 | 6 | 5 | 63* | ?
Cc1nc(-c2ccc(NC(=O)c3ccc(Br)o3)cc2)cs1 | 4% | 0.3% | -5 | -12 | -4 | -9 | 0.1
Cc1ccc(NS(=O)(=O)N2CCOCC2)c(C)c1 | 13% | -0.9% | 8 | 12 | 2 | -6 | -0.3
COc1ccc(C(CNC(=O)COc2cccc(C(F)(F)F)c2)N2CCCC2)cc1 (stereo unspecified) | · | 1.3% | -1 | -25 | -2 | -6 | -0.9
CC(C)(C)NC(=O)C(c1ccc(F)cc1)N(C(=O)CCC(=O)Nc1ccccn1)C1CCCC1 (stereo unspecified) | 18% | 0.7% | -1 | -12 | 9 | 2 | 4.2
CC(Oc1cc(C(F)(F)F)cc(C(F)(F)F)c1)C(=O)NC(N)=O (stereo unspecified) | 4% | 1.0% | 4 | 2 | 5 | -5 | 0.7
CCN(CC)CCN=C1CCCc2ccccc2N1 | -10% | -0.2% | 6 | 2 | 8 | 0 | -3.5
O=C1OC2CC3CC1CC(O)(C3)C2 (stereo unspecified) | 3% | -1.0% | 1 | 3 | 7 | -3 | -1.1
CCc1ccc(-n2c(=O)c3ccc(C(=O)NCCc4ccccc4)cc3n(CC(N)=O)c2=O)cc1 | -17% | 8.0%&-4.5% | 3 | 0 | 3 | -4 | 1.7
COCCNC(=O)C1CCCN(C(=O)c2nc3ccccc3s2)CC1 (stereo unspecified) | · | 0.0% | 10 | · | 6 | -4 | -3.1
CCC(C)(C)n1nnnc1CN(Cc1ccco1)Cc1cc2cc3c(cc2[nH]c1=O)OCO3 | -19% | 5.5% | 7 | 1 | 4 | -5 | -0.1
CCn1cc(CN2CCCC(CNS(=O)(=O)c3cccc4cccnc34)C2)cn1 (stereo unspecified) | 0% | 3.3% | 1 | -1 | 1 | -33 | -0.2
CCOC(=O)CSc1ccc(S(=O)(=O)N2CCCCC2)cc1[N+](=O)[O-] | 2% | 2.3% | 7 | -8 | -2 | 2 | -4.0
COC(=O)c1ccccc1NC(=O)c1cc(-c2ccc(O)cc2)on1 | 7% | 1.1% | 4 | · | 1 | -2 | -3.6
Cc1cccc(NC(=O)COC(=O)c2cc(C)oc2C)c1 | 18% | 2.0% | -5 | -7 | 1 | -3 | 0.2
O=C1c2ccccc2NC(c2ccco2)N1/N=C/c1ccco1 (stereo unspecified) | 13% | -3.5% | -1 | 3 | 7 | -5 | 0.2
CCCCNC(=O)C1CC(=O)N(C2CCCCC2)C1 (stereo unspecified) | -2% | · | 13 | 12 | -3 | -9 | -4.8
NS(=O)(=O)c1ccc(NC(=O)NC2CC(=O)N(c3ccc4c(c3)OCCO4)C2)cc1 (stereo unspecified) | · | 0.0% | 4 | -5 | -11 | 21 | 3.3
CCOc1ccc([N+](=O)[O-])cc1CNC1CCCCCCC1 | -2% | -0.3% | · | -6 | -7 | -6 | -0.9
O=C1/C(=C/c2ccco2)CCc2ccccc21 | 56µM* | 3.3% | -5 | -19 | -1 | 16 | -3.0
Cc1ccccc1NS(=O)(=O)c1cc(C(=O)NCCC2=CCCCC2)ccc1Cl | 8% | 6.2%[38.3 µM] | -8 | 17 | 1 | -11 | -2.1
CC(C)(C)c1ccc(CCC2OCC(C[N+]3(C)CCOCC3)O2)cc1 (stereo unspecified) | -19% | 1.5% | 6 | -3 | 2 | -1 | -4.5
C#CCNC(=O)C1=C[C@@H](c2ccc(Br)cc2)C[C@@H](OCCCCO)O1 | -14% | 3.5% | -1 | -6 | 12 | -10 | -0.4
CC1CCN(CCOCCSc2ccc(Cl)cc2)CC1 | -19% | -0.3% | · | -2 | -1 | -15 | -4.4

Record cards, as listed above. Screens in order: Sfp inh	PINK1 expr mod	CtBP-E1A blk	TRPV1 PAM	Six1-Eya2 blk	D2 potentiator	D2 agonist
`COCCNC(=O)C1CCCN(C(=O)c2nc3ccccc3s2)CC1` (stereo unspecified) reads ·	0.0%	10	·	6	-4	-3.1
`CCOc1ccc([N+](=O)[O-])cc1CNC1CCCCCCC1` reads -2%	-0.3%	·	-6	-7	-6	-0.9
`CCC(C)(C)n1nnnc1CN(Cc1ccco1)Cc1cc2cc3c(cc2[nH]c1=O)OCO3` reads -19%	5.5%	7	1	4	-5	-0.1
`CCOC(=O)CSc1ccc(S(=O)(=O)N2CCCCC2)cc1[N+](=O)[O-]` reads 2%	2.3%	7	-8	-2	2	-4.0
`CC(C)(C)c1ccc(CCC2OCC(C[N+]3(C)CCOCC3)O2)cc1` (stereo unspecified) reads -19%	1.5%	6	-3	2	-1	-4.5

(cont.)
SMILES | Sfp inh | PINK1 expr mod | CtBP-E1A blk | TRPV1 PAM | Six1-Eya2 blk | D2 potentiator | D2 agonist
Cc1ccc(-c2nnc(SCC(=O)NC3CCCC3)n2N)cc1 | · | 0.4% | 11 | · | 3 | -34 | 1.0
C=C(C)COc1ccc(-c2nc(N)ncc2-c2ccc(OC)c(OC)c2)c(O)c1 | -10% | 2.4% | -10 | 16 | -23 | 5 | 3.4
O=C(CNC(=O)c1ccccc1)N/N=C/c1cn[nH]c1-c1ccccc1 | 0% | -0.1% | -17 | 20 | -8 | -6 | 0.9
Cc1cccc(OCC2Cn3c(nc4c3c(=O)[nH]c(=O)n4C)O2)c1 (stereo unspecified) | 11% | 4.1% | 12 | 10 | 3 | 20 | 0.2
CCOC(=O)C1CCN(C(=O)C2CCC(=O)N(CC3CCCCC3)C2)CC1 (stereo unspecified) | 16% | 2.3% | 0 | 4 | 21 | -5 | -7.2
Cn1c(=O)oc2cc(S(=O)(=O)N3CCCC(C(=O)N4CCc5ccccc5C4)C3)ccc21 (stereo unspecified) | 10% | 1.7% | -2 | -10 | -6 | -4 | -6.7
CCOC(=O)c1cc2c(nc1NC(=S)Nc1ccccc1)CC(C)(CC)OC2 (stereo unspecified) | 7% | -1.4% | -15 | 3 | 0 | -6 | -1.3
O=c1ccc2ccccc2o1 | -1%&8%&23% | 0.8% | 7 | -6 | 2 | 6 | -1.2
COc1cccc(-n2c(SCC#N)nnc2-c2cnccn2)c1 | 17% | 2.0% | 3 | 10 | 9 | 5 | -0.3
COc1ccc2c(CCNC(=O)c3ccc([N+](=O)[O-])cc3)c[nH]c2c1 | 9% | 2.3% | -16 | -18 | 0 | 6 | -0.1
CC1(C(=O)O)CCCN(C(=O)c2ccc3c(c2)C(C)(C)CCC3(C)C)C1 (stereo unspecified) | · | -0.7% | 11 | · | 7 | -7 | 1.0
Cc1cc(Br)cc(Cl)c1OC(=O)c1ccncc1 | -23% | 8.9% | -15 | 3 | 8 | -5 | 3.2
O=C(C1CCC(=O)N(C2CCCC2)C1)N1CCC(Oc2ccccc2Cl)CC1 (stereo unspecified) | -1% | 0.6% | 1 | 8 | -2 | 16 | -1.9

Assay outcomes: PubChem BioAssay, National Center for Advancing Translational Sciences (NCATS)
